Screens (PubChem BioAssay)
Sa helicase inh: blocks Staphylococcus aureus DNA helicase; purified S. aureus helicase, fluorescence unwinding assay; about half of the hits fall short of the stated cut; inhibition, %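 (tested at about 80 µM)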; 120,000 tested, 0.05% active; AID 485395;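 active = both duplicates at 50% or more, or one of them with a favoured structure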;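 note: 0% = mean of negative control wells and 100% = mean of positive control wells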
MgrA DNA FP: alters Staphylococcus aureus MgrA binding to DNA; 84,000 tested, 0.13% active; fluorescence polarization; inhibition, %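 (about 10 µg/mL by stock and volumes)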;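 active = above 50% in either of two replicates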;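 note: 0% = protein plus DNA without compound and 100% = DNA alone without protein; higher means less MgrA bound to DNA so lower polarization; one replicate is shown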
Starred values were filed as active, the others as inactive; nt = not tested or not shown; & = joins results of further samples.

SMILES	Sa helicase inh	MgrA DNA FP
Oc1ccc(-c2nnco2)cc1	nt	0.9
Cc1ccc(-c2onc3ccc(C4(C)OCCO4)cc23)cc1	-18.0	nt
O=C1CC2(CCCC2)C(=O)N1c1ccc(Cl)c(Cl)c1	nt	-0.4
CCN1/C(=C/c2ccc3ccccc3[n+]2CC)Sc2cc(NC(C)=O)ccc21	6.0	11.7
CN(C)Cc1ncccc1O	15.0	nt
CCC1C(=O)N=C(SCC(=O)Nc2cccc3ccccc23)NC1=O (configuration not stated)	5.0	-0.2
CC(=O)Nc1ccc(SCc2csc(C)n2)cc1	-55.0	nt
Brc1c(CSc2nc3ccccc3s2)nc2sccn12	nt	2.9
NC(Cc1ccc(OC(F)(F)C(F)(F)F)cc1)C(=O)O (configuration not stated)	-19.0	0.0
CC(C)(C)c1ccc(S(=O)(=O)Nc2ccc(O)c(C(=O)O)c2)cc1	-14.0	nt
CCC(C)Oc1ccc(/C=C2/NC(=O)NC2=O)cc1Br (configuration not stated)	-18.0	nt
O/N=C/c1ccc(F)c(Cl)c1	nt	3.5
NC(=O)C1CCCN(C(=O)Nc2ccc(F)cc2)C1 (configuration not stated)	21.0	0.4
O=C(NC1=NCCS1)C1c2ccccc2Oc2ccccc21	0.0	nt
Cc1ccc(C(=O)SC2=NCCS2)cc1	18.0	0.6
Cc1cc(C)nc(/N=C2\NC(=O)CC3C(=O)NCCN23)n1 (configuration not stated)	8.0	12.6
O=C(O)C(C(=O)O)=C1C2CC3CC(C2)CC1C3	nt	-5.2
O=S(=O)(NCCc1ccc(Cl)cc1)c1ccc(F)c(F)c1	-10.0	1.0
Cc1ccc(-c2cc(C(=O)N(C)C3CCCCC3)[nH]n2)cc1C	-29.0	nt
CCC1Oc2ccc(C)cc2N(CC(=O)NC2CCCCCCC2)C1=O (configuration not stated)	7.0	nt
NC(=O)Nc1ccc(C(=O)OCC(=O)N(Cc2ccccc2)C2CCS(=O)(=O)C2)cc1 (configuration not stated)	4.0	nt
O=C(CSc1n[nH]c(=O)[nH]c1=O)Nc1ccccc1C(=O)c1ccccc1	-8.0	nt
CCN=C1S/C(=C2\C(=O)N(C(C)=O)c3ccccc32)C(=O)N1CC	-12.0	nt
CCOc1ccc(-c2cc(C(=O)N3CCc4ccccc4C3)c3ccccc3n2)cc1	4.0	4.1
COC(=O)c1ccccc1C(=O)N1CCOCCOCCOCC1	-30.0	nt
(further entries)
SMILES	Sa helicase inh	MgrA DNA FP
Cc1ccc(S(=O)(=O)c2[nH]c(=S)sc2N2CCOCC2)cc1	18.0	nt
Cc1onc(-c2ccccc2Cl)c1C(=O)OCC(F)(F)F	-1.0	nt
N#Cc1c(SCC(N)=O)nsc1SCC(N)=O	4.0	1.9
COc1cc(/C=C2/SC(N)=NC2=O)ccc1OC(=O)c1ccccc1Cl	nt	2.5
COc1ccc(C(=O)COC(=O)/C=C/c2cccc(C(F)(F)F)c2)cc1	1.0	-0.7
COc1ccccc1NC(=O)Cn1nc(C(F)(F)F)n(N)c1=S	-12.0	1.4
Cc1cc(NCc2ccccc2)nc(-c2ccccc2O)n1	18.0	-0.5
O=C(CSC1=NCCS1)N1CCCCCC1	-9.0	nt
O=C(Nc1ccccc1)N1CCCC1c1cccs1 (configuration not stated)	nt	-0.6
CCC(C)c1c(O)nc2n(c1=O)CCCS2 (configuration not stated)	3.0	nt
CN(C(=O)Cn1nnc2ccccc2c1=O)C1CCCc2ccccc21 (configuration not stated)	-1.0	nt
COCCNC(=O)Cc1nc2ccccc2n1CC(=O)NCc1ccc(Cl)cc1	-5.0	nt
CSc1nc2ccc(NC(=O)CCc3ccco3)cc2s1	-4.0	nt
O=S(=O)(c1ccc(F)cc1)N1CCCCC1	5.0	0.4
COc1cccc(C(=O)COC(=O)c2cncc(Br)c2)c1	12.0	nt
COc1ccc(N=Cc2c(O)[nH]c3ccccc23)cc1	13.0	1.4
Cn1nc(C(=O)OCc2cc(Cl)c3c(c2)OCO3)c2ccccc2c1=O	-2.0	nt
CC(Sc1nnc(-c2ccccc2)o1)C(=O)N(C)c1ccccc1 (configuration not stated)	3.0	nt
Nc1ncnc2c1ncn2[C@@H]1O[C@H](COP(=O)(O)O)[C@@H](O)[C@H]1O	nt	-13.9
Nc1ncnc2c1ncn2CCNCCc1ccccc1	21.0	nt
O=C(O)/C=C\C(=O)N1CCc2ccccc21	2.0	nt
COc1ccc(C(Nc2ccccn2)c2oc(CO)cc(=O)c2O)cc1 (configuration not stated)	10.0	nt
O=C(Nc1ccc(SC(F)F)cc1)C12CCC(CC1)C2	15.0	nt
CC1(C)CC2CC(C)(CN2C(=O)CCCN2C(=O)c3ccccc3C2=O)C1 (configuration not stated)	6.0	-1.5
CCc1cc2c(=O)c(-c3cnn(-c4ccccc4)c3)coc2c(CN2CCOCC2)c1O	2.0	nt

In a second layout: results already given
The line under a structure holds: Sa helicase inh	MgrA DNA FP
- Cn1nc(C(=O)OCc2cc(Cl)c3c(c2)OCO3)c2ccccc2c1=O
    -2.0	nt
- CC(Sc1nnc(-c2ccccc2)o1)C(=O)N(C)c1ccccc1 (configuration not stated)
    3.0	nt
- Nc1ncnc2c1ncn2[C@@H]1O[C@H](COP(=O)(O)O)[C@@H](O)[C@H]1O
    nt	-13.9

Next part.
SMILES	Sa helicase inh	MgrA DNA FP
O=C(N/N=C/c1ccc(N2CCOCC2)cc1)C1CC1	-7.0	nt
COc1ccc(Cl)cc1NC(=S)NCCn1cc(Br)cn1	2.0	-1.1
Cc1oc(C(C)(C)C)cc1C(=O)/C(C#N)=C/Nc1ccccc1	-17.0	nt
CC/C(=N\OC(=O)Nc1ccc(OC(F)(F)F)cc1)c1ccc(-c2ccccc2F)cc1	nt	2.7
N/C(=N\c1nc2c(c(=O)[nH]1)CCCC2)Nc1ccccc1	9.0	-0.3
CCOC(=O)c1[nH]c(C)c(C(=O)N2CCCCC2C)c1C (configuration not stated)	-22.0	nt
COc1cc2c(cc1OC)C(c1cccs1)NCC2 (configuration not stated)	-15.0	nt
COC(=O)c1cc2sccc2n1Cc1cc(=O)n2ccccc2n1	5.0	-1.3
COc1cc(N/C(N)=N/c2nc(CSc3ccc(C)cc3)cc(=O)[nH]2)cc(OC)c1	-26.0	nt
Cc1cc(C)nc(NS(=O)(=O)c2ccc(N3C(=O)C4C5C=CC(C5)C4C3=O)cc2)n1 (configuration not stated)	nt	-1.3
CCN1C(=O)/C(=C/c2ccccc2)SC1=S	-16.0	nt
Cc1ccc(C)c(S(=O)(=O)n2ccnc2)c1	16.0	-3.2
CC1CN(c2nc(-c3ccc(F)cc3)cs2)CC(C)O1 (configuration not stated)	1.0	0.8
CCc1ccc(-c2cn3ccsc3n2)cc1	-10.0	nt
Cc1cc(C)cc(C(=O)N(CCc2ccccc2)C2CC3CCC(C2)N3C)c1 (configuration not stated)	19.0	nt
CC(C)(C)NC(=O)N1CCc2ccccc2C1	13.0	3.1
CCS(=O)(=O)N(CC(=O)O)c1ccc(OC)cc1	14.0	-0.6
CCC(C)C(N)C1=NC(C(=O)N[C@@H](CC(C)C)C(=O)N[C@H](CCC(=O)O)C(=O)N[C@H](C(=O)N[C@H]2CCCCNC(=O)[C@H](CC(N)=O)NC(=O)[C@@H](CC(=O)O)NC(=O)[C@H](Cc3cnc[nH]3)NC(=O)[C@@H](Cc3ccccc3)NC(=O)[C@H]([C@@H](C)CC)NC(=O)[C@@H](CCCN)NC2=O)[C@@H](C)CC)CS1 (some centres not stated)	nt	0.9
CCCc1nc2c(C)cc(-c3nc4ccccc4n3C)cc2n1Cc1ccc(-c2ccccc2C(=O)O)cc1	nt	5.6
COc1nc(Nc2cccc(C(F)(F)F)c2)nc(OC)n1	nt	-9.1
Nc1nc(Nc2cccc3ccccc23)nc(C2CCCC2=O)n1 (configuration not stated)	2.0	0.3
C=CCN(CC=C)C(=O)C1CCN(Cc2cccc(Cl)c2)CC1	-22.0	-5.5
C=CCSc1nc(C)cc(=O)[nH]1	20.0	nt
O=C(O)c1ccc(Sc2ccccn2)c([N+](=O)[O-])c1	nt	-2.3
CSc1ccccc1C(=O)NCCOc1ccccc1C(C)C	12.0	nt

A portion of the results above, for reference:
SMILES	Sa helicase inh	MgrA DNA FP
Cc1ccc(-c2onc3ccc(C4(C)OCCO4)cc23)cc1	-18.0	nt
O=C1CC2(CCCC2)C(=O)N1c1ccc(Cl)c(Cl)c1	nt	-0.4
CCN1/C(=C/c2ccc3ccccc3[n+]2CC)Sc2cc(NC(C)=O)ccc21	6.0	11.7

The results go on.
SMILES	Sa helicase inh	MgrA DNA FP
C=CCn1c(SC)nc2c1c(=O)[nH]c(=O)n2C	2.0	-6.2
CC(C)(C)c1nc(=S)[nH][nH]1	nt	1.9
Cc1ccc(-c2ocnc2C(N)=O)cc1	nt	-1.9
O=C(CSc1nc(-c2ccccc2)c(-c2ccccc2)o1)N1CCCC1	-20.0	nt
COc1cc(C)c(CN)cc1C(C)C	2.0	4.1
O=C1Nc2ccccc2C12NNc1ccccc1O2 (configuration not stated)	0.0	nt
COc1ccccc1-n1c(=O)c(C#N)cc2c(=O)n3ccccc3nc21	-59.0	nt
Clc1ccccc1Sc1cnc2ccccc2n1	nt	-0.4
O=C1CCCC2=C1C(c1ccc(O)c(O)c1)c1c(ccc3ncccc13)N2 (configuration not stated)	15.0	27.1
O=C(Cn1cnc(SCc2ccccc2)n1)Nc1cccc(C(F)(F)F)c1	9.0	1.7
COc1cc(/C=C2\SC(=S)N(C(C(=O)O)C(C)C)C2=O)cc(OC)c1O (configuration not stated)	26.0	0.2
O=C(C[n+]1ccccc1)Nc1ccc(C(=O)O)cc1	-2.0	-3.3
O=c1[nH]c2ccc(NS(=O)(=O)c3ccc(C4CCCCC4)cc3)cc2[nH]1	5.0	2.9
Cn1cc(S(=O)(=O)NCc2ccc3c(c2)OCO3)c(C(F)(F)F)n1	nt	3.1
O=C(O)CCCC(=O)Nc1nccs1	13.0	-3.5
COc1ccc(NC(=O)CCC2CCCCC2)c(OC)c1	1.0	2.3
Cc1cc(NC(=O)CSc2cn(CC(=O)N3CCC(C)CC3)c3ccccc23)no1	-18.0	nt
O=C(OCCN1C(=O)c2cccc3c(N4CCCCC4)ccc(c23)C1=O)c1ccc(S(=O)(=O)N2CCCCC2)cc1	nt	-0.7
CCn1nc(C(=O)OCC(=O)c2c[nH]c3ccccc23)c2ccccc2c1=O	-22.0	nt
O=C(NCCc1ccc(F)cc1)c1ccc(S(=O)(=O)N2CCCCC2)cc1	-3.0	1.4
CNS(=O)(=O)c1ccc(NC(=O)c2cc3ccccc3oc2=O)cc1	13.0	0.1
CCCN(S(=O)(=O)c1ccc(OCC)cc1)S(=O)(=O)c1cccs1	2.0	nt
Cc1ccc(SCC(=O)Nc2ccccc2)cc1	-8.0	2.8
CCOC(=O)c1cnc2cc(Cl)c(OC)cc2c1N1CCN(c2cccc(Cl)c2)CC1	27.0	nt
COc1cc(-n2c(=O)c3ccccc3n(CC(=O)NCc3ccc(C)cc3)c2=O)cc(OC)c1OC	0.0	1.2

Copied from the list.
`CCN1/C(=C/c2ccc3ccccc3[n+]2CC)Sc2cc(NC(C)=O)ccc21` – Sa helicase inh = 6.0
`COc1cc(C)c(CN)cc1C(C)C` – MgrA DNA FP = 4.1
`O=C1CCCC2=C1C(c1ccc(O)c(O)c1)c1c(ccc3ncccc13)N2` (configuration not stated) – MgrA DNA FP = 27.1

More entries:
SMILES	Sa helicase inh	MgrA DNA FP
COc1ccccc1C1CCN(C(=S)Nc2cccnc2)CC1	nt	1.1
CC(C)c1ccc(NC(=O)C(NS(=O)(=O)c2cccc3nsnc23)C(C)C)cc1 (configuration not stated)	17.0	-1.8
c1ccc(-c2ccsc2-c2ccccc2)cc1	nt	0.3
O=C(Nc1ccc(-c2nc3ccccc3c(=O)[nH]2)cc1)C1CCCCC1	24.0	0.7
CS(=O)(=O)NCCSc1nnnn1-c1ccccc1	-3.0	-2.2
CC(=O)N1CCN(C(=O)COc2ccc(Br)cc2)CC1	-37.0	-0.6
CCCCc1c(O)c2ccc(C)cc2n(CC)c1=O	nt	3.6
O=S(=O)(NCC1COc2ccccc2O1)c1ccc(S(=O)(=O)c2ccccc2)s1 (configuration not stated)	nt	2.6
CC1CCN(S(=O)(=O)c2cc(Br)cnc2N)CC1	7.0	3.7
COCCCn1c(C)nnc1SCC#N	1.0	-2.4
CN1CCN(NC(=O)COc2cccc(C(F)(F)F)c2)CC1	5.0	0.5
CNC(=O)c1c(C)[nH]c(=S)c(C#N)c1-c1ccco1	6.0	nt
O=C(CCc1nnc2n(CCc3ccccc3)c(=O)c3ccccc3n12)NCc1ccco1	-3.0	nt
COc1ccc(-c2cc3ccccc3n2CC(O)CNCC2CCCO2)cc1 (configuration not stated)	2.0&-2.0	nt
Cc1onc(-c2ccccc2Cl)c1-c1nc2ccccc2c(=O)o1	17.0	nt
O=C(c1ccccc1)c1c[nH]c(C(=O)NCc2cccnc2)c1	nt	2.2
NS(=O)(=O)c1ccc(CNC(=O)CC23CC4CC(CC(Br)(C4)C2)C3)cc1	8.0	1.8
S=C1NCN(Cc2cccnc2)CN1	nt	2.2
COc1ccccc1NC(=O)Cc1noc(COC(=O)c2ccc(Br)o2)n1	-7.0	nt
O=C(O)c1coc2ccccc12	-8.0	-5.2
CCOC(=O)c1cc(-c2ccc(C)cc2)n(CCC(=O)N2CCN(c3ccccn3)CC2)c1C	1.0	nt
O=C(CCCC(=O)N1CCc2ccccc21)N1CCc2ccccc21	-5.0	0.9
COc1ccc(C2CC(=O)C3=C(C2)Nc2ccccc2NC3c2cc3c(cc2[N+](=O)[O-])OCO3)cc1 (configuration not stated)	nt	-0.6
O=C(O)C1CC2(COC(c3ccccc3)OC2)C1C(=O)O (configuration not stated)	nt	-2.5
Cc1ccc(=O)n(S(=O)(=O)c2ccc(F)cc2F)n1	nt	-4.5
CCN(CC(=O)Nc1ccc(S(=O)(=O)N2CCCC2)cc1)CC(=O)Nc1cccc(OC)c1	1.0	nt
O=C(COC(=O)c1cccs1)c1ccc2c(c1)OCCO2	5.0	-0.5
Cc1ccc(C(C)C)c(OCCCCN(C)C)c1	-5.0	nt
Cn1c(CO)nc2cc(N=Cc3ccc(O)cc3O)ccc21	-1.0	nt
CN(C/C=C/c1ccc(N(C)C)cc1)CCc1ccccn1	14.0	-1.3

This is a subset. The share of hits here may be higher or lower than overall.
